Screening data deposited in PubChem BioAssay by National Center for Advancing Translational Sciences (NCATS).
ClpP mod = qHTS Assay for Activators of ClpP; ATP-dependent Clp protease proteolytic subunit (Bacillus subtilis (strain 168)), P80244; purified B. subtilis ClpP, FRET peptide cleavage, 20 min; Potency, µM (top dose mostly 57.5 µM), without a hit: top-dose activity change, negative = active; 1.9% of 340,000 active; active = well fitted falling curve with a large enough effect; inconclusive = small, poorly fitted or top-dose-only effect; inactive = no such curve, though single readings can be large or run the other way; note: potency is the fitted concentration of half-maximal effect; the source files actives as falling curves though it sought activators and does not explain the sign; nearly all actives have a fitted effect of over 65% in size; many hits overshoot -100%
Target sequence (P80244 whole entry, looked up): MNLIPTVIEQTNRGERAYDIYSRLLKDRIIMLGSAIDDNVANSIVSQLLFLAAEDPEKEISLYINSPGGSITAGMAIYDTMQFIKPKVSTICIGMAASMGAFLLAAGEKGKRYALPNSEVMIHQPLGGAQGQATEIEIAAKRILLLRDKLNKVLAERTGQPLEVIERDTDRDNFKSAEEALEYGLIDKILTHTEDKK
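Buffer: 100 mM Tris/HCl pH8, 100 mM KCl, 0.05% low protease BSA, 2.5% glycerol, 0.01% Tween-20. ClpP 10 microg/mL final; 20 min RT; delta FRET normalized to ADEP and DMSO controls.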
Sfp PPTase inh = inhibitors of Bacillus subtilis Sfp phosphopantetheinyl transferase; Q9F4F7; Biochemical Sfp PPTase activity, qHTS; Potency, µM, for inactives: max response, negative = inhibition, actives largely listed as inhibitors; 3.5% of 310,000 active; AID 1490; active = well fitted inhibition curve with a large enough effect; inconclusive = small, poorly fitted or top-dose-only effect, or another doubt; inactive = no such curve, though single readings can be large or run the other way;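 note: the enzyme is Sfp with the accession as filed and its product quenches rhodamine fluorescence; potency is the fitted concentration of half-maximal effect; 0% = enzyme reaction without inhibitor and -100% = no enzyme wells; top concentration of the series not given in the record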
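Step 1, compound plus 15 nM Sfp-PPTase, 15 min, room temperature. Step 2, add rhodamine-CoA (5 uM) and BHQ-2-YbbR (12.5 uM). Step 3, read 525/598 nm fluorescence at 0 and 30 min.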
Menin MLL FP FL = inhibitors of human menin-MLL interaction, wild-type MLL peptide | Fluorescence polarization, fluorescein-MLL peptide displacement from menin | FP activity change, % at 61.4 µM | 290,000 tested, under 10 active | AID 1766; inconclusive = falling polarisation curve, or a change in total fluorescence; inactive = total fluorescence flat and polarisation flat or rising; no compound was filed as active; the % refers to the polarisation; negative = inhibition;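 note: % of control where 0% means no effect; inhibitors lower the polarisation; unlabelled MLL peptide was the positive control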
Numbers without * were called inactive; u = inconclusive; x = no result given; & = joins results of further samples; ! = not active in a repeat; [ ] = remark or other dose. Not all compounds are listed (hit frequency here may not be typical).

1	Clc1ccc2c(c1)C(c1ccccc1)=NCc1nncn1-2
2	c1cnc(N2CC[C@@]3(CCCNC3)C2)nc1
3	COC(=O)[C@H]1[C@H](c2ccccc2)C(=O)[C@@]2(O)c3ccccc3O[C@@]12c1ccccc1
4	CC1(C)[C@@H](C=C(Cl)Cl)[C@@H]1C(=O)OCc1c(F)c(F)cc(F)c1F
5	CCCCCCCCc1[se]c2ccccc2c1[Se]c1ccccc1
6	CC[C@@]1(O)C(=O)OCc2c1cc1n(c2=O)-c2cc3ccccc3nc2C1
7	CCCCC/C=C\C/C=C\C/C=C\C/C=C\CCCC(=O)NCC(=O)O
8	O=c1ccc2cc(OC3OC(CO)C(O)C(O)C3O)c(O)cc2o1 (stereo not given)
screen / no.	1	2	3	4	5	6	7	8
ClpP mod	x	x	x	x	x	x	x	x
Sfp PPTase inh	9%	u	11%	-8%	1%	1%&22%&31%	79µM*!	u
Menin MLL FP FL	-1.1	0.4	1.6[11.7 µM]	2.5	-2.8	3.5&2.5	u	u

9	CC(C)n1cnc2c(C(=O)N[C@H]3CN4CCC3CC4)cc(Cl)cc21
10	Cc1ccc2c(c1)[C@@H]1CN(C)CC[C@H]1N2
11	COC(=O)[C@@]1(Cc2ccccc2)[C@H]2c3cc(C(=O)N(C)C)n(C)c3C[C@H]2CN1C(=O)c1ccccc1
12	CC/C=C\C/C=C\C/C=C\C/C=C\C/C=C\CCCC(=O)NC(C)C(=O)O (stereo not given)
13	N#Cc1ccc(CN2CC[C@@]3(CCCNC3)C2)cc1
14	CC(C)=CCCC1(C)C=Cc2c(O)c3c(c(CC=C(C)C)c2O1)OC12C(=CC4CC1C(C)(C)OC2(C/C=C(/C)C(=O)O)C4O)C3=O (stereo not given)
15	CN(C(=O)Cc1ccccc1)[C@H](CN1CCCC1)c1ccccc1
16	CN1C[C@H](C(=O)N[C@]2(C)O[C@@]3(O)[C@@H]4CCCN4C(=O)[C@H](Cc4ccccc4)N3C2=O)C=C2c3cccc4[nH]cc(c34)C[C@H]21
screen / no.	9	10	11	12	13	14	15	16
ClpP mod	x	x	x	x	x	x	x	x
Sfp PPTase inh	-5%&6%	23%	12%	-11%	5%	50µM*	-9%&9%	-17%
Menin MLL FP FL	-16	2.2	-11	-1.0	-4.9	0.4	0.8	u

17	CCCCOCN(C(=O)CCl)c1c(CC)cccc1CC
18	CN1c2ccccc2C(NCCCCCCC(=O)O)c2ccc(Cl)cc2S1(=O)=O (stereo not given)
19	N[C@@H](CCCCP(=O)(O)O)C(=O)O
20	O=C(c1csnn1)N1CCC[C@@]2(CCN(Cc3ccncc3)C2)C1
21	C[C@@H](N)Cn1ccc2cc(F)c(Cl)cc21
22	CS(=O)(=O)N1CCC2(CCCN(Cc3ccncc3)C2)CC1
23	CCN1C[C@@]2(COC)CC[C@H](O)[C@@]34[C@@H]2C[C@@H]([C@@H]13)[C@]1(O)C[C@@H](OC)C2C[C@H]4[C@H]1[C@H]2OC(C)=O
24	C=C1[C@@H]2C[C@@]3([C@H]1O)[C@H]1C[C@@H]4[C@@]5(C)CC[C@H](O)[C@]4([C@H]1N(CC)C5)[C@H]3C[C@H]2O
screen / no.	17	18	19	20	21	22	23	24
ClpP mod	x	x	x	x	x	x	x	x
Sfp PPTase inh	0%	u	-7%	-5%	17%	2%	13%	17%
Menin MLL FP FL	u	-0.6	-1.0	u	-7.5	-2.8	0.7[24.8 µM]	3.8[24.8 µM]

25	O=c1ccc2cc(O[C@H]3OC(CO)C(O)C(O)C3O)c(O)cc2o1 (stereo not given in full)
26	CCN1C[C@]2(COC)CC[C@H](O)[C@@]34[C@@H]5C[C@H]6[C@@H](OC)[C@H]5[C@](O)(C[C@@H]6OC)[C@@](O)([C@@H](OC)[C@H]23)[C@@H]14
27	Cc1noc(C)c1C(=O)N1CCC[C@@]2(CCN(CC(C)C)C2)C1
28	COC(=O)C1(C)C=C2C(=C(C)C(=O)C2C)CN1 (stereo not given)
29	Clc1ccccc1-c1cncnc1NCCc1cnc[nH]1
30	CC(C)(C)c1cc(O)ccc1O
31	CCC1C2CC3C4N(C)c5ccccc5[C@]45CC(C2C5O)N3C1O (stereo not given in full)
32	COc1ccc(C[C@H]2NC[C@H](O)[C@@H]2OC(C)=O)cc1
screen / no.	25	26	27	28	29	30	31	32
ClpP mod	x	x	x	x	x	x	x	x
Sfp PPTase inh	-3%&0%	20%	24%	7%	1%	40µM*	10%	-9%
Menin MLL FP FL	-0.3&0.2	0.8[24.8 µM]	-6.2	u	0.6	-0.5&-3.2	0.8	-0.2

33	C[C@@H]1O[C@@H](O[C@H]2CC[C@@H](O[C@H]3[C@H](O)C[C@H](c4ccc5c(c4O)C(=O)C4=C(C5=O)[C@@]5(O)C(=O)C[C@](C)(O[C@H]6CC[C@H](O[C@H]7C=CC(=O)[C@H](C)O7)[C@H](C)O6)C[C@@]5(O)C=C4)O[C@@H]3C)O[C@H]2C)C=CC1=O
34	CCCCCCCCCC(=O)O[C@H]1CC[C@H]2[C@@H]3CCC4=CC(=O)CC[C@@H]4[C@H]3CC[C@]12C
35	C=C1C2CC[C@@]3(C)C(c4ccoc4)OC(=O)C[C@@]13OC1CC(=O)C(C)(C)C(C(OC(C)=O)C(=O)OC)[C@@]12C (stereo not given in full)
36	c1cc2c(c(NC3=NCCN3)c1)CCCC2
37	CC(C)[C@H](NC(=O)[C@H](CCC(=O)O)NC(=O)[C@H](Cc1ccccc1)NC(=O)[C@@H](C)NC(=O)[C@@H](N)Cc1ccc(O)cc1)C(=O)N[C@H](C(=O)NCC(N)=O)C(C)C
38	CCCCCl
39	COc1cc2c3cc1Oc1c(OC)c(OC)cc4c1C(Cc1cccc(c1)Oc1ccc(c(O)c1)CC3N(C)CC2)N(C)CC4 (stereo not given)
40	CC(=O)O[C@@H]1CN2CCC1CC2
screen / no.	33	34	35	36	37	38	39	40
ClpP mod	x	x	x	x	x	x	x	x
Sfp PPTase inh	5µM*	-28%	17%	21%	8%	10%	2%	7%
Menin MLL FP FL	-6.1	-0.7	4.7	0.2	2.2	-0.7	-1.0	u

41	O=C(O)Cc1cccnc1C(=O)O
42	CS/C(N)=C(C#N)/C(C#N)=C(\N)SC
43	CC(=O)CC(c1ccccc1)c1c(O)c2ccc(O)cc2oc1=O (stereo not given)
44	CCC1C(C)=NN=C(c2ccc(OC)c(OC)c2)c2cc(OC)c(OC)cc21 (stereo not given)
45	CCCN1[C@@H]2C[C@@H](O)CC[C@@H]2C[C@H]1C(=O)OC
46	O=C(O)[C@@H]1CSC(c2cccnc2)N1 (stereo not given in full)
47	COc1cc2c(cc1O)[C@H]1Cc3ccc(OC)c(O)c3CN1CC2
48	O=C1/C(=C\c2ccccc2)C[C@@]2(O)[C@H]3Cc4ccc(O)c5c4[C@@]2(CCN3CC2CC2)[C@@H]1O5
screen / no.	41	42	43	44	45	46	47	48
ClpP mod	x	x	x	x	x	x	x	x
Sfp PPTase inh	16µM*	u	-14%	15%&9%	-4%	40µM*	9%	u
Menin MLL FP FL	20	0.9	-2.1	u	-16	-0.5	-3.5[24.8 µM]	35[activator]

49	N#Cc1nn(-c2c(Cl)cc(C(F)(F)F)cc2Cl)c(N)c1S(=O)C(F)(F)F (stereo not given)
50	O=C(Oc1ccccc1)N1CCC2(CCCN(Cc3ccccc3)C2)CC1
51	C[C@]12CCC3C(CC[C@]4(O)C[C@@H](O)CC[C@]34C=O)[C@@]1(O)CC[C@@H]2C1=CC(=O)OC1 (stereo not given in full)
52	Nc1ccc(-c2ccc(N)c(N)c2)cc1N
53	c1ccc(-c2cc3c(nc2-c2ccccc2)CCNC3)cc1
54	c1cnc(N2CC3(CCNCC3)C2)nc1
55	COc1cc2c(c3oc4cccc(O)c4c(=O)c13)C1C=CO[C@@H]1O2 (stereo not given in full)
56	CCCCOc1ccc(C(=O)NCCc2csc(-c3ccc(OC)cc3)n2)cc1
screen / no.	49	50	51	52	53	54	55	56
ClpP mod	x	x	x	x	x	x	x	22µM*
Sfp PPTase inh	-12%&14%&3%&10%	2%	5%	-3%	12%	-3%	1%	x
Menin MLL FP FL	0.1&-2.2&0.7	3.2	u	-0.8	0.1[11.7 µM]	-0.6	-5.7	x

57	COc1ccc(NC(=O)CCc2nc(C3=CCN(Cc4cccc(Cl)c4)CC3)no2)c(OC)c1
58	Cc1cc(C)cc(OCC(=O)Nc2ccc(Cl)cc2C(=O)c2ccccc2)c1
59	Cc1cccc(CN2C(=O)CN=C(c3ccccc3Cl)c3cc(Cl)ccc32)c1
60	CN1CCN(c2csc3ccc(F)cc3c2=O)CC1
61	O=C(Nc1ccc(Br)cc1C(=O)c1ccccc1Cl)c1ccccc1F
62	Cc1ccc2nc(NC(=O)c3cccn(Cc4ccccc4F)c3=O)sc2c1
63	COc1ccc(NC(=O)CCc2nc(C3=CCN(Cc4cccc(C)c4)CC3)no2)c(OC)c1
64	CCOC(=O)[C@]12Cc3cc(OC)ccc3[C@H]1N(C1CCCCC1)C(=O)c1cc(OC)ccc12
screen / no.	57	58	59	60	61	62	63	64
ClpP mod	-4.7%	4.8%	-3.4%	-16%	-0.7%	-6.8%	1.7%	2.1%
Sfp PPTase inh	x	x	x	x	x	x	x	x
Menin MLL FP FL	x	x	x	x	x	x	x	x

65	O=C(Nc1nc2ccccc2s1)c1cccn(Cc2ccccc2)c1=O
66	O=P(/C=C1\OCc2ccccc21)(Oc1ccccc1)Oc1ccccc1
67	NC(=O)c1ccc(NC(=O)c2cccn(Cc3ccccc3)c2=O)cc1
68	CCCCC12CN3CC(C)(CN(C1)C3c1ccccn1)C2=O (stereo not given)
69	O=C(COc1ccccc1Cl)N1CCN(CCc2ccccn2)CC1
70	CNC(=O)C[C@H]1CC[C@@H]2NC[C@H](O)COC[C@H]2O1
71	O=C(Nc1cc[c]([Sb](=[O])([OH])[OH])cc1)c1ccccc1
72	COc1ccc(C2CC(=O)Oc3c2c(=O)oc2ccccc32)c(OC)c1OC (stereo not given)
screen / no.	65	66	67	68	69	70	71	72
ClpP mod	-3.5%	0.7%	-26%	-1.3%	-1.0%	2.1%	-2.8%	u
Sfp PPTase inh	x	x	x	x	x	x	x	x
Menin MLL FP FL	x	x	x	x	x	x	x	x

Rewritten field by field: part of the list above.
23) CCN1C[C@@]2(COC)CC[C@H](O)[C@@]34[C@@H]2C[C@@H]([C@@H]13)[C@]1(O)C[C@@H](OC)C2C[C@H]4[C@H]1[C@H]2OC(C)=O
  ClpP mod: x	Sfp PPTase inh: 13%	Menin MLL FP FL: 0.7[24.8 µM]
46) O=C(O)[C@@H]1CSC(c2cccnc2)N1 (stereo not given in full)
  ClpP mod: x	Sfp PPTase inh: 40µM*	Menin MLL FP FL: -0.5
59) Cc1cccc(CN2C(=O)CN=C(c3ccccc3Cl)c3cc(Cl)ccc32)c1
  ClpP mod: -3.4%	Sfp PPTase inh: x	Menin MLL FP FL: x
62) Cc1ccc2nc(NC(=O)c3cccn(Cc4ccccc4F)c3=O)sc2c1
  ClpP mod: -6.8%	Sfp PPTase inh: x	Menin MLL FP FL: x

(listing goes on)
73	COc1ccc(CCNCc2ccc3c(c2)n(C)c(=O)n3C)cc1
74	O=C(CN1CCOCC1)c1ccc2ccccc2c1
75	Cc1ccccc1-n1nc(C)c2c1NC(=O)CSC2c1ccccc1C(F)(F)F (stereo not given)
76	Cc1ccc(-n2c(/C=C/c3ccccc3)nc3ccccc3c2=O)cc1Cl
77	O=C(c1ccc2c(c1)N(Cc1ccc(F)cc1)C(=O)c1ccccc1S2)N1CCC2(CC1)OCCO2
78	O=S(=O)(c1ccccc1)C1CN1c1c(F)c(F)c(F)c(F)c1F (stereo not given)
79	O=c1c2ccccc2nc(/C=C/c2cccc3ccccc23)n1-c1ccccc1Cl
80	CCOC(=O)[C@]12Cc3cc(OC)ccc3[C@H]1N(C)C(=O)c1cc(OC)ccc12
screen / no.	73	74	75	76	77	78	79	80
ClpP mod	1.0%	-12%	-2.7%	-0.6%	1.0%	-0.8%	1.9%	0.1%
Sfp PPTase inh	x	x	x	x	x	x	x	x
Menin MLL FP FL	x	x	x	x	x	x	x	x
